NPYLR7 ag: activates Aedes aegypti NPYLR7 receptor; activation, % at 10 µM; HEK293T NPYLR7/Galpha15, GCaMP6s calcium fluorescence; 270,000 compounds, 0.15% hits; in the data active means activation above about 40%;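 further: 0% = vehicle and 100% = reference agonist at the receptor; some compounds past the cut are filed as inactive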
NPYLR7 ag max-min: also measured in NPYLR7 ag; calls as there; activation, %; measured here: Max-Min RFU normalised activation; some inactives read as strong as hits;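 span of the calcium signal over five minutes; 0% = vehicle and 100% = native peptide agonist; compound fluorescence can raise it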
* = called active by the depositor; & = joins results of further samples. The list is partial; count on the stated rates, not on these rows.

SMILES	NPYLR7 ag	NPYLR7 ag max-min
COc1ccc(NC(=O)[C@@H]2C[C@@H](O)CN2)c(NC(=O)C(C)C)c1	0	0
Cc1ccc(F)c(-c2cc(C(N)=O)ccn2)c1	2	-2
CC(C)(C)CC(C)(C)NC(=O)c1cncc(Br)c1	7	1
CCOCCn1c(N2CCN(Cc3cccc(C)c3)CC2)nc2c1c(=O)[nH]c(=O)n2C	1	29
COCCN(CC(=O)N1CCc2sccc2C1c1ccc(C)cc1)C(=O)c1cccc(OC)c1 (stereo not given)	-8	-3
CCCc1nc(Cn2cnc3cc(C)c(C)cc32)cs1	11	8
COc1cccc(C2SCC(=O)N2c2cc(C)cc(C)c2)c1OC (stereo not given)	-1	0
COC(=O)[C@@H]1C(O)CC[C@H]2CN3CCc4c([nH]c5ccccc45)[C@@H]3C[C@@H]21 (stereo not given in full)	-2	-2
CN(C(=O)Cn1nc(-c2ccccc2)c2sc(N3CCCCC3)nc2c1=O)c1ccccc1	-5	-11
CC1(C)Cc2cc(Cn3ccnc3-c3ccc(CO)o3)ccc2O1	7	5
O=C(CCC(=O)c1ccc(F)cc1)NCC(=O)Nc1cc(Cl)ccc1Cl	13	7
O=C(CCc1c[nH]c2ccccc12)N1CCCSC1=Nc1ccccc1	1	1
Cc1ccc(C(=O)Nc2nc(COc3ccc(Cl)cc3Cl)cs2)cn1	1	-1
O=C(NCC1CCCc2ccccc21)c1ccccn1 (stereo not given)	-3	-3
C/C=C1\C(=O)CC2C3CCC4=CC(=O)CC[C@]4(C)C3CC[C@]12C (stereo not given in full)	1	-24
COc1ccc(-n2nnc3c(SCc4ccccc4C)ncnc32)cc1	15	15
CCc1ccc(C(=O)N(Cc2nc3cc(C)ccc3o2)C2CCCCC2)cc1	0	-2
CN(C)c1cccc(C(=O)Nc2ccccc2C(=O)O)c1	-1	0
Cc1ccc2sc(N(CCCn3ccnc3)C(=O)c3ccco3)nc2c1C	-8	-16
COCCN(CC(=O)N1CCc2sccc2C1c1ccc(Cl)cc1Cl)C(=O)c1ccc(Cl)c([N+](=O)[O-])c1 (stereo not given)	-1	13
Cc1cc(N2C(=O)C3C4C=CC(C4)C3C2=O)no1 (stereo not given)	5	1
N#Cc1ccccc1NC(=O)c1c(-c2ccccc2)c(-c2ccccc2)n[nH]c1=O	-12	-21
Fc1ccc(-n2nc(SCc3coc(-c4cccs4)n3)sc2=S)cc1	7	8
O=C(NC1CCCNC1=O)c1cccnc1SCc1ccc(F)cc1 (stereo not given)	3	2
Cc1nc(Nc2ccc(NS(=O)(=O)c3ccc(F)cc3)cc2)cc(-n2cccn2)n1	-10	-14
CC(=O)N(CC1=CCN(Cc2cnc[nH]2)CC1)CC(C)C	5	3
COc1ccc(NC(=O)Cn2ncnc2-c2ccccc2Cl)cc1	4	2
CCc1nc2ccc(C(=O)N3CCN(S(=O)(=O)CC)CC3)cn2c1N(CCC(C)C)CCN(C)C	-11	-16
CCC1CN(CCC(=O)NC(c2ccncc2)c2ccccc2C)Cc2cc(OC)ccc2O1 (stereo not given)	-4	-5
Cc1cc(C)nc(SCc2cc(=O)c(OC(=O)c3ccc(C)c([N+](=O)[O-])c3)co2)n1	-12	-11
COc1cccc2c1N(CC(=O)NC(C)c1ccco1)CCC2 (stereo not given)	-4	-3
COC(=O)C1=C(C)N=c2s/c(=C/c3ccc(Cl)c(Cl)c3)c(=O)n2C1c1cccs1 (stereo not given)	15	21
O=C(NC1CCN(c2ccccc2C(=O)NCC2CCCO2)CC1)c1cccs1 (stereo not given)	14	20
C=C(C)CN1c2ccccc2NC(=O)C1CC(=O)Nc1ccccc1OC (stereo not given)	5	4
Cc1cc(NC(=O)NCc2ccc(C(F)(F)F)cc2)no1	-2	1
COC(=O)c1ccccc1C(=O)N1CCC(C(Cc2ccccc2)N(C)C(=O)c2ccoc2C)CC1 (stereo not given)	10	1
O=C(c1ncc[nH]1)N1CCOC(COCc2ccccc2F)C1 (stereo not given)	-5	-1
CC(C(=O)Nc1ccc(N2CCCCC2)nc1)n1ccnc1 (stereo not given)	11	6
COc1cccc(C(CN2CCN(C(=O)c3c(C)noc3C)CC2)OCc2ccc(C#N)cc2)c1 (stereo not given)	-2	-11
Brc1ccc(-c2nnc3sc(CNCc4ccc5c(c4)OCO5)cn23)cc1	8	3
COc1ccc(C(=O)N2CCC3(CCCN(Cc4ccc(F)cc4)C3)C2)o1 (stereo not given)	14	0
COc1ccc(CCN(C)C(=O)CCCCCNC(=O)OC(C)(C)C)cc1OC	-7	-10
CC(C)(C)C(=O)OCOC(=O)[C@@H]1N2C(=O)[C@@H](NC(=O)[C@H](N)c3ccccc3)[C@H]2SC1(C)C	17	7
COc1ccc(N2C(=O)CC(N3CCC(C(=O)O)CC3)C2=O)cc1 (stereo not given)	-4	-9
CCCN(Cc1c(-c2ccc(F)cc2)noc1N(CC)CC)CC(O)COC (stereo not given)	10	8
O=C1CC(c2ccc(Br)s2)c2cnn(C3CCCC3)c2N1 (stereo not given)	1	-1
CCc1ccc2nc(-c3cnn(-c4ccccc4)c3)[nH]c(=O)c2c1	2	5
Cc1ccc2nc(CNC(=O)N3CCCC3CC(C)(C)C)cn2c1 (stereo not given)	3	0

By substructure: the compounds so far containing a tert-butyl group.
SMILES	NPYLR7 ag	NPYLR7 ag max-min
CC(C)(C)CC(C)(C)NC(=O)c1cncc(Br)c1	7	1
COc1ccc(CCN(C)C(=O)CCCCCNC(=O)OC(C)(C)C)cc1OC	-7	-10
CC(C)(C)C(=O)OCOC(=O)[C@@H]1N2C(=O)[C@@H](NC(=O)[C@H](N)c3ccccc3)[C@H]2SC1(C)C	17	7
Cc1ccc2nc(CNC(=O)N3CCCC3CC(C)(C)C)cn2c1 (stereo not given)	3	0

Carrying on:
SMILES	NPYLR7 ag	NPYLR7 ag max-min
COc1cccc(NC(=O)CSc2nc(=O)n(CCCO)c3c2CCC3)c1	-8	-12
C#C[C@]1(O)CC[C@H]2[C@@H]3CCC4=Cc5oncc5C[C@]4(C)[C@H]3CC[C@@]21C	0&-2	-5&-6
O=C(O)c1nn(-c2ccc(C(F)(F)F)cc2)c(=O)n(Cc2ccccc2Cl)c1=O	-5	0
COc1cccc(OCc2ccccc2)c1C(=O)NCCc1ccccc1	-3	-6
COc1ccc2c(C)cc(=S)[nH]c2c1	4	2
O=C(c1cc(-c2ccccc2F)nc2cc(-c3ccccc3)nn12)N1CCN(Cc2ccc3c(c2)OCO3)CC1	12	17
CCS(=O)(=O)Oc1cccc(CN(Cc2ccco2)C(=O)c2cccc(OC)c2)c1	-5	7
Cc1ccccc1OCC(=O)N1CCN(c2ncnc3c2nnn3-c2cccc(F)c2)CC1	-7	-14

Profiles, quoted from the list.
COc1ccc2c(C)cc(=S)[nH]c2c1 as listed: NPYLR7 ag: 4; NPYLR7 ag max-min: 2
O=C(c1cc(-c2ccccc2F)nc2cc(-c3ccccc3)nn12)N1CCN(Cc2ccc3c(c2)OCO3)CC1 as listed: NPYLR7 ag: 12; NPYLR7 ag max-min: 17
CCS(=O)(=O)Oc1cccc(CN(Cc2ccco2)C(=O)c2cccc(OC)c2)c1 as listed: NPYLR7 ag: -5; NPYLR7 ag max-min: 7

Remaining list, next part.
SMILES	NPYLR7 ag	NPYLR7 ag max-min
Fc1ccc(-c2csc(C=Cc3ccsc3)n2)cc1	0	3
Cc1csc(NC(=O)CN2CCN(Cc3nc(C(C)(C)C)cs3)CC2)n1	-16	-25
COCOc1cccc(CN2CCC2(C)C(=O)Nc2cccc(Oc3ccccc3)c2)c1 (stereo not given)	5	-2
O=C1CCN(C(=S)NCc2cccs2)CC1	7	12
O[C@@H]1CN(c2nc(-c3ccccc3)no2)CC[C@H]1c1ccc2c(c1)OCO2	11	9
CN1CC(c2nc3ccccc3n2Cc2ccc(Cl)cc2Cl)CC1=O (stereo not given)	-3	-5
Cc1onc(-c2ccccc2Cl)c1-c1nc(CC2CCN(C)CC2)no1	17	18
O=C1CCC2(CCCO2)CCN1CCCc1ccccc1 (stereo not given)	7	3
Cc1ccc(F)cc1C(=O)N1CCCC1(C)C(=O)O (stereo not given)	1	0
Cc1nn(C)c(Cl)c1S(=O)(=O)Nc1nc2c(C)ccc(C)c2s1	-1	44
O=c1cnc2cc(F)c(F)cc2n1CCn1cncn1	0	-6
COc1ccc(CN2CCNC(=O)C2CC(=O)N2CCCCO2)cc1OC (stereo not given)	-2	-5
C=CCn1c(SCc2cc(F)cc(F)c2)nnc1-c1ccc(F)cc1	-4	-1
O=C(NCCCc1ccccn1)c1ccc(-c2cccc3ccnn23)nc1	-2	-7
O=[N+]([O-])c1cc(Cl)cc(C=NC23CC4CC(CC(C4)C2)C3)c1O	0	-4
COc1ccc(C(=O)NC2CC(C)(C)Cc3occc32)cc1 (stereo not given)	3	11
COc1cccc(CNC(=O)Cn2nc(-c3ccc(F)cc3)ccc2=O)c1	5	0
Cc1cc(N2CCCC2c2nc3ccccc3s2)n2ncnc2n1 (stereo not given)	1	7
Cc1cc(C)nc(Sc2nnc(C)c3ccccc23)n1	0	-2
COc1ccc(CCN2CC(C(=O)NCc3ccncc3C)CCC2=O)cc1 (stereo not given)	19	15
Oc1ccc(N=Nc2nn[nH]n2)c(O)c1	0	1
Cc1ccc(Cc2nc(CN(C)[C@@H](C)c3cccc4ccccc34)cs2)cc1	25	30
CC(C)c1cc(C(=O)N2C[C@@H]3[C@H](C2)[C@H]2CC[C@@H]3O2)cs1	20	5
CCOC(=O)N1CCC(=O)N(CC)C[C@H]2COc3ccccc3[C@H]21	0	11
Cc1ccc(NC(=O)C2CCCN2S(=O)(=O)c2c(C)noc2C)cc1C (stereo not given)	-6	-9
CCCn1cc(-c2nc(-c3cc(OC)cc(OC)c3)no2)c(=O)c2ccccc21	15	14
O=C(CC1COCCN1)NCc1csc2c1CCCC2 (stereo not given)	29	14
c1ccc(CCOC2CCNCC2)cc1	16	4
COc1ccc(C2CC(c3cc(C)ccc3C)=NN2C(=O)CN2CCOCC2)c(OC)c1 (stereo not given)	1	9
OCCC1CN(CC2CCCCC2)CCN1CCc1ccccc1 (stereo not given)	2	1
CN(C)NC(=O)C(NC(=O)c1ccc(N)cc1)C12CC3CC(CC(C3)C1)C2 (stereo not given)	-1	-7
Cn1ccc2ccn(CC(=O)NCCc3ccc(Cl)cc3)c(=O)c21	9	4
Cc1cc(C)cc(N2CCC(C(=O)NCC3(c4ccccc4)CC3)C2=O)c1 (stereo not given)	1	2
COc1cc2c(cc1OC)C(c1cccc(C(F)(F)F)c1)N(C(=O)c1c(Cl)cc(Cl)cc1Cl)CC2 (stereo not given)	10	3
Cc1ccoc1C(=O)NC1CCN(CC(=O)NCc2ccccc2F)CC1	12	8
COc1ccc(S(=O)(=O)N2CCC3(CC2)SCCN3C(=O)c2cccc(OC)c2)cc1	-1	9
O=C(CSc1nnc(CNC(=O)c2cc(Cl)ccc2Cl)n1-c1ccccc1)Nc1ccccc1C(F)(F)F	-7	-4
Cc1cc(C(=O)N(CC(N)=O)C2CCCC2)c(C)n1-c1ccccn1	1	0
CC(C)CCN1CN=C(NS(C)(=O)=O)NC1	0	1
COc1ccc(/C=C2N=C(/C=C\c3cccc([N+](=O)[O-])c3)OC/2=O)cc1OC	8	1
O=C(NCCn1nc(-c2ccc(F)cc2)ccc1=O)NC1CCCCC1	1	0
CC(=O)OC1CCC2(C)C(=CCC3C2CCC2(C)C(C(=O)O)CCC32)C1 (stereo not given)	-2	-3
Cc1cc(C)n(CC(C)Nc2nc(-c3ccncc3)nc3c2CNC3)n1 (stereo not given)	17	14
COCCCn1c(CN2CC[C@@H]3CCCC[C@H]3C2)cnc1S(=O)(=O)C1CCCC1	3	-2
Cc1cc(Cl)cc(C)c1OCCOCCn1cnc2ccccc2c1=O	-7	14
Cc1nnsc1C(=O)NCc1cc(-c2ccc3c(c2)CC(C)O3)on1 (stereo not given)	-2	-5
CC(=O)c1c(C)oc2ccc(NS(=O)(=O)c3cc(C)ccc3C)cc12	-6	-9
Cc1cccc(Oc2cc(C(C)C)nc(SCc3cccc(C(F)(F)F)c3)n2)c1C	25	22
COCC(=O)N1CCCN(Cc2cccn2-c2ccc(Cl)cn2)CC1	16	12
O=C(Nc1nccs1)C1CCCN(CC(F)F)C1 (stereo not given)	1	20
CC(C)C(NC(=O)/C=C/C(=O)N(C)C1CCCCC1)c1ccccc1 (stereo not given)	0	0
Cc1ncc(CO)c2c1Oc1nc(-c3ccccc3)nc(SCC(=O)N3CCOCC3)c1C2	9	12
CC(c1ccc(Cl)cc1Cl)N(C)C(=O)CCC1NC(=O)NC1=O (stereo not given)	2	1
FC(F)Oc1ccc(Nc2ncnc3c2oc2ccccc23)cc1	5	4

Bioassay records from PubChem.
